# HCMV NEC inh – cytomegalovirus nuclear egress complex inhibition | HTRF UL50-UL53 interaction, normalized percent inhibition | inhibition, % (test concentration not listed) | 0.15% of 190,000 active;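 active = both replicates at 50% or more, plus weaker picks with an unusually low signal ratio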;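 note: stock transfer was 100 nL into about 20 µL; 0% = negative control wells and 100% = wells with untagged competitor protein; inactives centre near -12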
# Sa growth inh – S. aureus growth inhibition; S. aureus RN4220 growth, OD600, 20 h, 42 °C; stronger effect = lower value; relative growth, % (no concentration beside the values); 0.53% of 170,000 active;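 active = growth at 42 °C up to 50% and 20 or more points under that at 30 °C, or under 10% at both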;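 note: 300 nL library stock went into each well; scaled to the means of positive and negative controls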
# GIV Gai3 FP – inhibitors of GIV GBA-motif binding to rat Galpha-i3; Galpha-i3/FITC-GIV peptide fluorescence polarization, 90 min; stronger effect = lower value; scaled: aluminum fluoride 0%, vehicle 100%; percent of control (FP), % (no concentration beside the values); 0.42% of 210,000 active; AID 1224905; P08753;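 active = replicate mean at 85% of control or lower, very high polarization wells dropped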;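 note: wells of about 15 µL received 100 nL stock; the first replicate is given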
# Target sequence (P08753 whole entry, looked up): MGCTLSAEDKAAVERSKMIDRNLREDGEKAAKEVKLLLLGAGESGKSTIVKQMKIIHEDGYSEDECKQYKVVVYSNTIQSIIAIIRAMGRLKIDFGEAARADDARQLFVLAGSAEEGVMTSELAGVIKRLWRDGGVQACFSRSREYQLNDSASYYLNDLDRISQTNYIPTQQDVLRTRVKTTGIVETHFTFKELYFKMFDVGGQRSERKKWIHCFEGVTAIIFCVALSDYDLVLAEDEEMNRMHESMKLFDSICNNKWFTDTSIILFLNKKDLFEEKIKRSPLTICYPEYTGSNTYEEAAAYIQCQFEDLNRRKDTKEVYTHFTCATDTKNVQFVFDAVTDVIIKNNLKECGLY
# Sa growth inh second temp – second read-out of Sa growth inh, no call of its own (marks repeat the call); relative growth, %; measured here: growth at 30 °C;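 optical density after 20 h as mean of two plates; 100% = untreated growth and lower means inhibition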
# Numbers without * were called inactive; x = no result given.
# Values run as follows: HCMV NEC inh	Sa growth inh	Sa growth inh second temp	GIV Gai3 FP
- COc1cc(Cl)c(C)cc1NC(=O)CC(c1ccc(F)cc1)N1Cc2ccccc2C1=O (configuration not stated)
    x	105	94	98
- CCCSc1nc2c(c(=O)[nH]1)C(c1ccc(Cl)cc1)C(C(=O)OC)=C(C)N2 (configuration not stated)
    -20	x	x	101
- CCN(CC)C(=O)c1sc2nc3c(cc2c1N)CCCCC3
    x	116	87	101
- CCc1cccc2sc(N3CCN(C(=O)C4CC4)CC3)nc12
    x	98	90	100
- Cc1ccc2c(c1)N(CCC(=O)NCc1ccccc1Cl)C(=O)CO2
    -1	110	95	109
- N#CCCn1nc(-c2ccccc2)cc1-c1ccccc1
    -35	110	41	104
- O=C(Nc1ccncc1)c1ccc2nc[nH]c2c1
    -12	96	103	105
- O=C(CSc1nccn1Cc1ccccc1)NCc1ccccc1Cl
    x	114	94	94
- CCn1c(=O)cc(OCC(=O)N(C)c2ccc(OC)cc2)c2ccccc21
    4	109	85	106
- COc1cccc(CNC(=O)CSc2nc3cccnc3s2)c1OC
    4	107	94	111
- CCC(C(=O)Nc1c(-c2ccccc2)nc2cc(C)ccn12)c1ccccc1 (configuration not stated)
    x	161	95	102
- Cc1c(CCO)sc[n+]1Cc1ccccc1
    -44	127	84	x
- CCOC(=O)c1cnn(-c2ccc(Cl)cc2)c1C1CCNCC1
    -4	106	106	112
- NC(=O)c1nc2n(c1N)CCCC2
    -20	92	86	98
- COC(=O)c1ccc(Cn2nc(-c3ccc(C)c(C)c3)ccc2=O)cc1
    -36	105	83	111
- Cc1ccccc1Nc1nc(N)nc(CNCc2ccccc2)n1
    4	129	97	x
- O=S(=O)(c1cccc(Cl)c1)N1CCC2(CC1)Nc1ccc(Cl)cc1-n1cccc12
    -26	x	x	101
- COC(=O)c1ccccc1S(=O)(=O)Cc1ccc(OC)c(OC)c1
    -219	93	83	99
- CSc1ccc(Cl)c(C(=O)OCC(=O)N2CCC(C)CC2)c1
    -28	102	82	x
- O=C(c1ccccc1)c1ccc2nc(N3CCCCC3)c3nncn3c2c1
    -11	90	73	102

# Other structures:
# Values run as follows: HCMV NEC inh	Sa growth inh	Sa growth inh second temp	GIV Gai3 FP
- CCOc1ccc(CC(C(=O)NN)C(=O)NN)cc1CN(C)C
    -22	111	99	102
- Cc1oc(-c2ccccc2)nc1CSc1nccn2nc(-c3ccc(Br)cc3)cc12
    14	x	x	113
- COc1ccc2nc(Nc3ccccc3)sc2c1
    x	89	61	102
- Cc1cc(C)c2c(n1)SCC(=O)N2CC(=O)O
    -16	107	85	104
- O=C(OCc1cn2ccccc2n1)c1ccc2c(c1)OCCO2
    -10	92	93	x
- Cc1cc2ccccc2nc1SCCN1CCOCC1
    19	106	105	106
- Cc1csc(NC(=O)CC(C)(C)CC(=O)O)c1-c1nc2ccccc2s1
    -20	98	82	106
- CC(C)C1NC(C(=O)O)Cc2c1[nH]c1ccccc21 (configuration not stated)
    -5	95	91	x
- COC(=O)Cc1nc(NC(=O)c2ccccc2)sc1C
    -12	106	91	96
- CCCc1ccc(OCC(O)CN2CC(C)OC(C)C2)cc1 (configuration not stated)
    -4	85	78	x
- COc1ccc(NC(=O)C2CCCN(S(=O)(=O)c3ccc(F)cc3)C2)cc1 (configuration not stated)
    -31	93	85	97
- COc1ccc(C)cc1NC(=O)Nc1nnc(N2CCCCC2)s1
    -27	120	84	103
- Nc1cc(=O)nc(SCC(=O)Nc2ccc(Cl)cn2)n1-c1ccccc1
    x	89	91	102
- Cc1ccc(-c2nc(C(=O)Nc3ccc(F)cc3F)c3n2CCCCC3)cc1
    -30	x	x	104
- O=S(=O)(NCCC12CC3CC(CC(C3)C1)C2)c1cccc2nsnc12
    x	79	86	105
- O=C(/C=C/c1ccccc1)N1CCN(Cc2ccccc2)CC1
    -20	83	90	x
- COc1ccc(-c2nnc(SCC(=O)N3CCCCC3)o2)cc1
    -2	100	77	102
- COC(=O)c1c(NC(=O)/C(C#N)=C/c2ccc(OC)cc2)sc2c1CCC2
    12	102	96	103
- CCc1ccc(-n2c(N3CCN(c4cccc(Cl)c4)CC3)nc3ccccc3c2=O)cc1
    -32	92	87	102
- O=C(CN1C(=O)c2ccccc2C1=O)Nc1ccc(S(=O)(=O)Nc2ncccn2)cc1
    -3	81	93	99

# Additional entries follow.
# Values run as follows: HCMV NEC inh	Sa growth inh	Sa growth inh second temp	GIV Gai3 FP
- O=C(Nc1ccnn1C1CCCC1)c1cccnc1Oc1ccccc1
    -19	74	94	x
- CC(=O)NN1C(=O)c2cccc3c(N(C)C)ccc(c23)C1=O
    x	94	64	66*
- COc1ccc(-c2cc(C(=O)Nc3ccc(C)c(C)c3)no2)cc1
    1	107	97	95
- O=C(Nc1cccnc1)c1coc(=O)c2ccccc12
    0	83	80	100
- N#Cc1ccc(COc2ccc(-n3cnnn3)cc2)cc1
    -9	63	86	x
- O=C(Nc1ccc(F)cc1)c1nnc(C(=O)N2CCCC(C(=O)NCc3ccccc3)C2)s1 (configuration not stated)
    -1	x	x	108
- Cc1ccccc1NC(=O)C1Nc2cc(F)ccc2S(=O)(=O)N1 (configuration not stated)
    -20	x	x	101
- COc1cc(NC(=O)CCNC(=O)Cn2ccc3ccccc3c2=O)cc(OC)c1OC
    -1	94	89	101
- CCOC(=O)c1c(C)n(-c2ccccc2)c2ccc(OC(=O)c3ccccc3NC(=O)C(C)(C)C)cc12
    -50	99	88	103
- CC(Oc1ccccc1)C(=O)N(Cc1nc(-c2ccccc2)no1)C(C)(C)C (configuration not stated)
    -14	79	62	105
- CCn1c(O)c(C=Nc2ccc(Cl)c(C(=O)O)c2)c(=O)[nH]c1=O
    -2	111	98	108
- CC(=O)NC1C(OC2=CC3OC(=O)CC(C)=C3C=C2)OC(CO)C(O)C1O (configuration not stated)
    -27	102	99	102
- COc1cc(OC)cc(-n2c(=O)[nH]c3cc(C(=O)NCCc4ccc(C)cc4)ccc3c2=O)c1
    -4	107	91	104
- CC(C)c1ccc(NS(=O)(=O)c2ccc3[nH]cc(C(=O)NCC4CCCO4)c(=O)c3c2)cc1 (configuration not stated)
    5	91	67	107
- CCOC(=O)C1=C(C)N=c2s/c(=C\c3cc(Br)ccc3OC(C)=O)c(=O)n2C1c1cccc([N+](=O)[O-])c1 (configuration not stated)
    -14	x	x	107
- CC(Oc1ccccc1)c1nc(-c2cccc(Br)c2)no1 (configuration not stated)
    10	125	116	108
- COc1ccc2c(c1)cc1n2CCN=C1N
    -35	80	84	x
- O=C(Nc1ccc(Cl)cc1)c1n[nH]nc1Nc1ccccc1
    10	x	x	103
- O=c1oc2cc(O)ccc2cc1-c1cc(F)cc(F)c1
    -36	x	x	115
- CCC1CN(C(=O)N2CCC(C(=O)N3CCN(c4cc(C)ccc4C)CC3)CC2)c2ccccc2O1 (configuration not stated)
    -7	112	102	105

# (further entries)
# Values run as follows: HCMV NEC inh	Sa growth inh	Sa growth inh second temp	GIV Gai3 FP
- CCOc1ccccc1OCc1nn2c(CSc3ccccc3)nnc2s1
    4	x	x	112
- COc1ccc(N2C(=O)c3nccnc3C2=O)cc1Cl
    7	73	88	105
- O=C(CC12CC3CC(CC(C3)C1)C2)N1CCN(c2ccc(F)cc2)CC1
    x	118	94	108
- CCOC(=O)c1c(N2CCN(c3ccccc3)CC2)cc(C)nc1C
    9	103	98	105
- Cc1ccc(NC(=O)N2CCC3(CC2)OCCO3)cc1Cl
    -16	95	106	101
- CN(C(=O)CSc1nnc(CN(c2ccc(F)cc2)S(C)(=O)=O)n1C)c1ccccc1
    -8	x	x	103
- O=C(NCCN1C(=O)S/C(=C\c2ccccc2)C1=O)C1CCCC1
    -81	83	96	x
- C=CCOc1ccc2c3c(c(=O)oc2c1)CCC3
    x	114	80	100
- CNCc1ccc(OCc2ccc3c(c2)n(C)c(=O)n3C)c(OC)c1
    -8	x	x	100
- CCOc1ccc(S(=O)(=O)N(CC(=O)NCCc2ccc(OC)cc2)c2ccccc2)cc1
    -17	104	97	104
- S=C(NCCCn1ccnc1)Nc1ccccc1
    -12	91	92	x
- Cc1ccc2cc3cc(C(=O)NCC4COc5ccccc5O4)sc3nc2c1 (configuration not stated)
    1	107	100	98
- COC(=O)C1=C(C)NC2=C(C(=O)CC(c3cccs3)C2)C1c1cccs1 (configuration not stated)
    4	91	92	x
- O=c1[nH]c(CCl)nc2ccccc12
    -25	104	67	x
- CC(C#N)Oc1ccc(-c2ccc(C#N)cc2)cc1 (configuration not stated)
    -26	86	79	x
- Cc1ccc(S(=O)(=O)/C(C#N)=C/Nc2cc(C(F)(F)F)cc(C(F)(F)F)c2)cc1
    -25	88	95	103
- Cc1nc(Sc2nnc(C3CC3)o2)c2c(-c3ccccc3)csc2n1
    8	111	96	x
- Cc1cccc(N2CCN(c3ccc4cc(S(=O)(=O)N5CCC(C)CC5)ccc4n3)CC2C)c1 (configuration not stated)
    x	96	97	113
- CC(C)(C)c1ccc(OCCSc2nc3ccccc3n2CC(N)=O)cc1
    -12	x	x	105
- NC(=O)C1CCCCN1CC(=O)N1N=C(c2ccc(Cl)cc2)CC1c1ccco1 (configuration not stated)
    -45	85	91	x

# The results go on:
# Values run as follows: HCMV NEC inh	Sa growth inh	Sa growth inh second temp	GIV Gai3 FP
- O=c1c(-c2nc(-c3ccc(C(F)(F)F)cc3)no2)cnc2n1CCS2
    -5	89	99	101
- Cc1cccc(NC(=O)CSc2nc3ccccc3nc2N2CCC(C)CC2)c1C
    -4	x	x	97
- CCOC(=O)C1=C(CN2CCC(C(=O)OCC)CC2)NC(=O)NC1c1ccc(Cl)cc1 (configuration not stated)
    -4	93	101	110
- C[n+]1c2cc(N)ccc2cc2ccc(N)cc21
    -142	60	60	x
- CC(C)(C)OC(=O)CSc1nnc(-c2nn(Cc3ccccc3)c(=O)c3ccccc23)o1
    -30	104	98	x
- NNC(=O)c1ccc(/C=N\O)nc1
    x	108	101	101
- COc1ccc(C(=O)NCC(c2ccccc2)c2c[nH]c3ccccc23)cc1 (configuration not stated)
    -25	x	x	103
- Cc1ccc(N2CCN(c3ccc(C)cc3)C23C(=O)c2ccccc2C3=O)cc1
    x	102	85	99
- C=CCNC(=O)c1c[nH]c2ccc(S(=O)(=O)N(C)c3ccc(OCC)cc3)cc2c1=O
    3	101	82	x
- CCSc1nnc(NC(=O)C2CC2)s1
    -12	107	103	100
- O=c1c2c3c(sc2[nH]c(=S)n1Cc1ccccc1)CCCCC3
    x	14	25	100
- Cc1nnc(SC(C)C(=O)c2ccc(Br)cc2)n1C (configuration not stated)
    -15	78	84	x
- CC(OC(=O)c1ccco1)C(=O)Nc1nc(-c2ccccc2)cs1 (configuration not stated)
    -32	80	87	x
- Cc1ccc(-c2noc(-c3cc(C)[nH]n3)n2)cc1
    -28	x	x	101
- Cc1cccc(NC(=O)c2ccc(-n3c(C)nnc3C)cc2)c1
    x	125	87	104
- CCCNC(=O)c1ccc2c(=O)n(Cc3ccccc3)c(SCC(=O)c3ccc(OC)cc3)nc2c1
    -11	x	x	105
- CSc1nc2sc(C)cc2c(=O)n1C
    -22	100	89	110
- N#Cc1ccc(/C=C/C(=O)NCc2ccccc2)cc1
    -41	70	83	x
- Cc1ccc(NC(=O)C2CCCN(S(=O)(=O)c3ccc4c(c3)oc(=O)n4C)C2)cc1Cl (configuration not stated)
    -33	106	89	102
- Cc1oc(-c2cccc(Br)c2)nc1Cn1nc(C)c2c(C)onc2c1=O
    -32	x	x	118

# Full records from above. Order of values: HCMV NEC inh | Sa growth inh | Sa growth inh second temp | GIV Gai3 FP
# CCN(CC)C(=O)c1sc2nc3c(cc2c1N)CCCCC3 reads x | 116 | 87 | 101
# NC(=O)c1nc2n(c1N)CCCC2 reads -20 | 92 | 86 | 98
# Nc1cc(=O)nc(SCC(=O)Nc2ccc(Cl)cn2)n1-c1ccccc1 reads x | 89 | 91 | 102

# 4 of these compounds in another layout:
CCCNC(=O)c1ccc2c(=O)n(Cc3ccccc3)c(SCC(=O)c3ccc(OC)cc3)nc2c1
  HCMV NEC inh = -11; Sa growth inh = x; Sa growth inh second temp = x; GIV Gai3 FP = 105
COc1ccc(C(=O)NCC(c2ccccc2)c2c[nH]c3ccccc23)cc1 (configuration not stated)
  HCMV NEC inh = -25; Sa growth inh = x; Sa growth inh second temp = x; GIV Gai3 FP = 103
CCOC(=O)C1=C(CN2CCC(C(=O)OCC)CC2)NC(=O)NC1c1ccc(Cl)cc1 (configuration not stated)
  HCMV NEC inh = -4; Sa growth inh = 93; Sa growth inh second temp = 101; GIV Gai3 FP = 110
C[n+]1c2cc(N)ccc2cc2ccc(N)cc21
  HCMV NEC inh = -142; Sa growth inh = 60; Sa growth inh second temp = 60; GIV Gai3 FP = x

# Additional compounds follow:
# Values run as follows: HCMV NEC inh	Sa growth inh	Sa growth inh second temp	GIV Gai3 FP
- O=C(c1ccc2c(=O)n3c(nc2c1)CCCC3)N1CCN(c2ccccn2)CC1
    -6	x	x	104
- Cc1c(C(=O)O)oc2ccc(S(=O)(=O)NC3CCCCC3)cc12
    5	102	92	105
- Cc1ccccc1C(=O)NCCc1nc(-c2ccccc2)no1
    4	x	x	108
- OC(CNc1ccncc1)COc1ccc(OCC(O)CNc2ccncc2)cc1 (configuration not stated)
    -15	97	94	x
- CC(=O)n1c2c(c3cc(C)ccc31)CCCC2=O
    -20	106	91	102
- O=C(NC1CCCCC1)c1cc(F)cc2c1OCOC2
    -3	95	100	98
- Cc1ccc(-c2nc(CSc3nc4c(c(=O)[nH]3)CCCC4)c(C)o2)cc1
    -22	x	x	102
- Cc1ccc2oc(N3CCN(C(=O)c4ccc(-c5noc(C(C)C)n5)cc4)CC3)nc2n1
    -15	x	x	104

# Compound activity deposited in PubChem BioAssay by ICCB-Longwood Screening Facility, Harvard Medical School.
